Assay outcomes deposited in PubChem BioAssay by several laboratories.
Sa ugtP lethal: kills S. aureus RN4220 lacking UgtP; S. aureus RN4220 ugtP deletion, OD600 growth, 16 h; some inactives read as strong as hits; growth inhibition, % (no concentration beside the values); 330,000 tested, 0.54% active; AID 1259309;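 active = z-score under -3 and OD600 up to 0.15 on both plates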;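 also: plate controls were untreated wells for no effect and antibiotic for full effect; wells of about 80 µL received 100 nL stock; the first replicate is given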
BJeLR viability: kills HRASV12-expressing BJeLR cells | inhibition, % (test concentration not listed) | BJeLR (HRASV12) viability, CellTiter-Glo ATP luminescence, 48 h; reference of the scale not given here | 300,000 tested, 0.17% active | AID 1554;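 active = replicate mean above 50%; inconclusive = above 50% but judged a plate artefact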;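 also: 50 nL library stock added to about 25 µL; numbers are from one replicate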
PrP 5UTR inh: suppresses PrP 5' UTR mRNA reporter expression. cell-based PrP 5' UTR mRNA reporter, plate reader. inhibition, % (test concentration not listed). 340,000 tested, 0.35% active. AID 488862;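 active = every replicate at 50% or more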;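 also: 0 = median of the neutral control wells; tested in H4 reporter cells; numbers are from one replicate; inactives centre near -14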
Mtb hypoxia rep: inhibitors of hypoxia-regulated fluorescent reporter in Mycobacterium tuberculosis; fluorescence inhibition, % (no concentration beside the values); M. tuberculosis hypoxia-regulated fluorescent reporter, fluorescence; AID 1159583; 300,000 tested, 0.1% active;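 active = 35 to 45% if threefold the growth effect, above 45% if 1.5-fold the growth effect; inactive = the rest, general growth blockers included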;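 also: wells of about 50 µL received 100 nL stock; 0% = vehicle wells and 100% = reference inhibitor wells; whole bacteria with a GFP reporter of the hypoxia response; strong numbers were not always called active; many hits fall short of the cut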
RN4220 kill: S. aureus RN4220 growth inhibition | OD600, 16 h | 330,000 tested, 0.33% active | inhibition, % (no concentration beside the values) | AID 1259311;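 active = z-score of -3 or lower and OD600 up to 0.18 on both plates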;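 also: plate controls were untreated cells for no effect and reference antibiotic for full effect; stock transfer was 100 nL into about 80 µL; one replicate is shown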
Autofluor counter: flagged as autofluorescent in microsphere protease counterscreen; compound autofluorescence counterscreen, microsphere flow cytometry; active compounds read high; fluorescence intensity (test concentration not listed); 360,000 tested, 3.1% active;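 active = at least 3 SD above the mean of all compounds, about 16000 in these data; inconclusive = too few beads counted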;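 also: 100 nL of 1 mM stock went into each well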
Mtb hypoxia rep growth: recorded beside Mtb hypoxia rep, whose call it bears; growth inhibition, %; measured here: M. tuberculosis growth (absorbance);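 0% = vehicle and 100% = reference antibiotic; read after six days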
* = called active by the depositor; u = inconclusive; x = no result given.

Each structure is followed by: Sa ugtP lethal	PrP 5UTR inh	BJeLR viability	Mtb hypoxia rep growth	Autofluor counter	Mtb hypoxia rep	RN4220 kill
1. CC(C)c1nc2sc3c(=O)[nH]cnc3c2c2c1CCC2
  7	-16	-11	0	2293	2	3.2
2. CCOP(=O)(OCC)C(NC(=O)C(Cl)Cl)C(Cl)(Cl)Cl (configuration not stated)
  0	-11	-3	-2	3841	-5	-0.3
3. CCOC(=O)/C=C1\CN(Cc2cc(OC)c(OC)c(OC)c2)S(=O)(=O)c2ccc(C(F)(F)F)cc21
  x	-14	5	x	3950	x	x
4. Cc1nn(Cc2ccccc2)c(C)c1C=NNC(=O)c1ccncc1
  -5	x	x	x	x	x	-3.4
5. CNC(=O)c1c(I)c(C(=O)NCC(=O)Nc2c(I)c(C(=O)O)c(I)c(C(=O)NCCO)c2I)c(I)c(N(C)C(C)=O)c1I
  -3	-2	x	-6	4274	-3	-0.7
6. O=C(COc1ccc(F)cc1Br)Nc1ccccc1N1CCOCC1
  -4	-4	x	2	u	4	5.9
7. Cn1c(=O)[nH]c(=O)c2c1nc(N1CCN(CCO)CC1)n2Cc1ccccc1Cl
  8	-17	-6	11	3910	12	1.4
8. CC1CCN(S(=O)(=O)c2ccc3[nH]c(=O)ccc3c2)CC1
  3	-4	2	x	5947	x	1.1
9. COc1cc(/C=N/NC(=O)C(NC(=O)c2ccccc2)c2n[nH]c(=O)c3ccccc23)ccc1OCC(N)=O (configuration not stated)
  x	-10	-4	x	5112	x	x
10. CC1(c2ccc(OC(F)F)cc2)NC(=O)N(CC(=O)Nc2ccc(S(N)(=O)=O)cc2)C1=O (configuration not stated)
  -15	-7	-5	9	4420	-14	-1.0
11. c1ccc(-c2ccccc2-c2nc(-c3ccncc3)no2)cc1
  8	7	0	x	3617	x	9.7
12. COc1ccc(CNC(C)CCc2ccccc2)cc1 (configuration not stated)
  -3	0	-4	8	3501	-4	1.4
13. Cc1cc(C(=O)NCCCC(=O)O)c(C)o1
  2	-21	3	6	12081	-1	0.7
14. N#CCCN(C(=O)COC(=O)c1n[nH]c2ccccc12)c1ccccc1
  -1	-3	x	7	3993	5	1.3
15. CC1=CC(C)C2(CO)COC(c3ccc(O)cc3)C1C2C (configuration not stated)
  -2	-3	4	11	1988	-6	0.7
16. CC(=O)N1CCC(CCCC2CCN(C(C)=O)CC2)CC1
  1	-17	-7	12	3606	6	2.9
17. Cc1ccc(Cn2c(=N)c(C(=O)NC3CCCCC3)cc3c(=O)n4ccccc4nc32)cc1
  -4	2	-1	10	4820	1	-1.4
18. CC(=O)Nc1cccc(OCC(=O)NC(C)C(C)C)c1 (configuration not stated)
  -5	-22	-1	-1	8401	6	1.8
19. Cc1ccc(C)c(C(=O)NCCN(C)C)c1
  -3	-27	7	-4	10118	0	5.2
20. CCOC(=O)c1c(CN2CCC(C)CC2)oc2ccc(OC)cc12
  0	-13	-1	9	20393*	-2	6.1
21. COc1ccc(-n2c3nc4ccccc4nc3c3c(=N)oc(C)nc32)cc1
  15	-52	-4	12	8730	14	8.8
22. Cc1occc1C(=O)NNC1=CC(=O)CC(C)(C)C1
  2	-7	15	8	2080	17	5.5
23. CC1=C(C(=O)OCc2ccccc2)C(c2ccccc2OC(F)F)NC(=O)N1 (configuration not stated)
  -2	-8	-6	-11	8631	0	7.9
24. Cc1noc(C)c1C(=O)N1CCC(C(=O)c2ccccc2)CC1
  3	-9	-2	-6	3460	4	1.9
25. CC(C)(Cc1ccc(O)cc1)NC(=O)SCc1ccccc1
  14	-20	2	6	3736	5	1.1
26. Cc1cccc(C(=O)NCC(=O)Nc2ccncc2)c1
  10	-90	8	0	5683	4	0.5
27. CC(=O)c1c(COC(=O)c2ccco2)nc2ccccc2[n+]1[O-]
  -2	-15	19	x	4787	x	1.1
28. COC/C=C/C1=CC2=CC(=O)C(C)(OC(=O)c3cnc4ccccc4n3)C(=O)C2=CN1C(CO)CO (configuration not stated)
  x	-24	16	x	3665	x	x
29. O=c1[nH]c2ccccc2cc1CN(Cc1cccnc1)S(=O)(=O)c1ccc([N+](=O)[O-])cc1
  2	-12	-3	-13	6077	1	2.7
30. CCOC(=O)c1ccc(N2C(=O)C(O)=C(C(C)=O)C2c2ccccn2)cc1 (configuration not stated)
  -4	-7	-4	12	3887	2	-3.1
31. CCOc1ccc(N2C(=O)C3C(c4ccccc4F)NN(C(=O)c4ccc(C)cc4)C3C2=O)cc1 (configuration not stated)
  17	4	-10	x	5919	x	5.4
32. COc1ccc(NC(=O)CN2C(=O)COc3ccc(S(=O)(=O)N4CCOCC4)cc32)cc1Cl
  -2	3	-10	1	5939	12	-0.9
33. Cc1c[n+]([O-])ccc1[N+](=O)[O-]
  14	-17	x	5	3976	13	-3.7
34. NC(=O)CC(NC(=O)c1cccc(Br)c1)c1ccc(N2CCN(c3ccc(F)cc3)CC2)c([N+](=O)[O-])c1 (configuration not stated)
  2	-8	18	6	3896	5	-5.0
35. CCOC(=O)c1sc(NC(=O)C2CC(=O)N(c3ccc(OCC)cc3)C2)nc1C (configuration not stated)
  8	1	7	-5	2855	-1	4.1
36. C[N+]1(CCn2ccc3ccccc32)CCCCC1
  1	-36	4	2	4400	4	-0.2
37. COc1ccc(-c2cc(=NC(CC(C)C)C(=O)O)c3cc(C)ccc3o2)cc1 (configuration not stated)
  -1	-17	8	4	2697	1	-6.7
38. O=C(CSc1nccc(-c2cccs2)n1)Nc1cccc(Cl)c1Cl
  -3	-36	-3	6	3896	12	0.5
39. Cc1sc2nc(SCc3ccc(C(=O)O)cc3)n(Cc3ccco3)c(=O)c2c1C
  20	-64	-3	-4	3308	10	25
40. O=C(OCc1nnc(-c2ccccc2)o1)c1ccc(Cl)cc1
  -1	-2	-3	5	2687	16	5.1
41. COc1ccccc1C(c1nnnn1C(C)(C)C)N1CCCCCC1 (configuration not stated)
  5	-31	8	4	13737	5	8.6
42. CC(=O)Oc1ccc(C(=O)Nn2cnnc2)cc1
  3	-17	-8	9	2724	3	6.2
43. O=C(CCCn1c(=O)[nH]c2cc(Cl)ccc2c1=O)NCCCN1CCCC1
  3	-3	-1	x	3064	x	0.6
44. COc1ccccc1NC(=O)c1cc(S(=O)(=O)N2CCOCC2)ccc1Cl
  -2	-1	-5	12	4304	4	4.6
45. O=C(O)c1c(-c2ccc(Cl)cc2)cn2ccccc12
  0	-82	x	-2	3807	2	7.7

Compounds above that contain two or more sulfur atoms, in the order listed:
Each structure is followed by: Sa ugtP lethal	PrP 5UTR inh	BJeLR viability	Mtb hypoxia rep growth	Autofluor counter	Mtb hypoxia rep	RN4220 kill
38. O=C(CSc1nccc(-c2cccs2)n1)Nc1cccc(Cl)c1Cl
  -3	-36	-3	6	3896	12	0.5
39. Cc1sc2nc(SCc3ccc(C(=O)O)cc3)n(Cc3ccco3)c(=O)c2c1C
  20	-64	-3	-4	3308	10	25

Remaining list, next part.
Each structure is followed by: Sa ugtP lethal	PrP 5UTR inh	BJeLR viability	Mtb hypoxia rep growth	Autofluor counter	Mtb hypoxia rep	RN4220 kill
46. Cc1ccc(S(=O)(=O)NNC(=O)Nc2ccc(Cl)c(Cl)c2)cc1
  12	3	0	9	4403	1	36
47. Cc1cc(F)ccc1NC(=S)NC1CCCC1
  6	-17	-3	2	6166	16	-2.2
48. Cc1ccc(C(=O)NCc2ccccc2)cc1Br
  2	-32	2	x	8620	x	6.6
49. CCN(CC)C(=O)CCc1nnc(CCc2c[nH]c3ccccc23)o1
  15	-20	-8	9	2961	1	1.8
50. COc1ccc2c(c1)c1nc3ccccc3nc1n2Cc1ccc(OC)c(OC)c1
  -8	-16	15	4	2839	6	1.5
51. CCCC1CCC(c2ccc(C(N)=O)cc2)CC1 (configuration not stated)
  26	-11	0	x	2372	x	14
52. COCCN(CC(=O)Nc1ccccc1C(F)(F)F)C(=O)/C=C/c1ccc2ccccc2n1
  4	-22	x	0	11081	7	2.0
53. O=C(CCN1C(=O)c2ccccc2C1=O)NC(=S)Nc1ccccc1
  5	-16	15	3	2471	4	6.5
54. O=[N+]([O-])c1ccc(-c2cnc[nH]2)cc1
  5	x	-2	6	3686	7	2.7
55. CC1CCN(c2nnc(N)s2)CC1
  5	-20	2	5	11086	0	4.8
56. CC(C)CC(NC(=O)OC(C)(C)C)c1cn([C@@H](Cc2cc3ccccc3[nH]2)C(=O)N2CCN(C(=O)OC(C)(C)C)CC2)nn1 (some centres not stated)
  x	-23	2	x	3561	x	x
57. COC(=O)CCC(=O)NN1C(=O)c2ccccc2C1=O
  8	-16	3	-1	4222	16	2.1
58. COc1ccc(N2CCN(c3oc(COc4ccc(Cl)cc4Cl)nc3C#N)CC2)cc1
  -15	-12	8	2	2311	4	10
59. CCOC(=O)CNC(=O)CSc1nc2ncc(Br)cc2[nH]1
  6	4	-7	x	4903	x	-1.5
60. COc1ccc(Cl)cc1NC(=O)CN(C)C(=O)Cc1n[nH]c(=O)c2ccccc12
  x	-10	-4	x	3803	x	x
61. COc1cccc(NC(=O)C(=O)NCc2ccncc2)c1
  1	-63	2	-4	2676	1	4.7
62. Cc1cc(C)nc(/N=C2\NC(=O)CC(C(=O)O)N2c2ccc(Oc3ccccc3)cc2)n1 (configuration not stated)
  -2	-26	-2	x	4810	x	0.7
63. CCOC(=O)C/C(C)=N/NC(=O)c1cccs1
  x	7	-3	x	7907	x	x
64. CCCNC(=O)CN(Cc1ccco1)S(=O)(=O)c1ccc(OCC)cc1
  1	-10	-1	3	2518	6	6.1
65. CC(=O)Nc1ccc2nc(-c3cccnc3)[nH]c2c1
  7	-14	4	2	2492	0	1.0
66. O=C(N/N=C/c1cccc(OC(=O)c2ccccc2Cl)c1)c1cccnc1
  x	3	-10	x	4096	x	x
67. CCOc1cccc(/C=C/c2cc(C(=O)O)c3ccccc3n2)c1OC
  11	-21	4	7	3159	1	8.2
68. CCCCn1c(N)c(N(CCC(C)C)C(=O)COC(=O)c2ccco2)c(=O)[nH]c1=O
  3	8	-5	3	3851	3	4.4
69. Nc1nonc1-n1nnc(C(=O)NN=Cc2ccc(F)cc2)c1-c1cccs1
  -1	x	x	-4	x	2	4.0
70. CCN(CC)S(=O)(=O)c1ccc2[nH]c(=O)cc(C(=O)NCc3ccccc3)c2c1
  5	-10	-5	-3	5337	-2	5.6
71. COc1ccc(NC(=O)Cn2nnc(C(=O)NCc3ccccc3)c2N)cc1Cl
  -4	-13	3	x	5253	x	0.6
72. CC1CCN(c2ccc(C(=O)Nc3nnc(C4CC4)s3)cc2[N+](=O)[O-])CC1
  -9	-2	0	1	2448	3	10
73. COC(=O)c1cc(NCc2ccccc2F)ccc1N1CCOCC1
  12	-4	x	1	7907	3	5.2
74. Cn1cc(C(=O)c2ccc(Cl)cc2Cl)cc1C(=O)NN=C(N)COc1cccc(C(F)(F)F)c1
  -34	x	x	4	x	-12	-1.2
75. COc1ccc(-c2nnc(SCC(=O)NC3CCCCC3)n2N)cc1
  12	-10	x	-1	4381	2	4.2
76. O=C(Oc1ccc(Cl)c2cccnc12)c1cccc([N+](=O)[O-])c1
  -5	7	0	3	2406	9	18
77. COC(=O)COc1ccc(/C=N/NC(=O)CN(c2ccccc2OC)S(=O)(=O)c2ccccc2)cc1
  x	-18	-2	x	3428	x	x
78. Cc1cc(C)n(-c2ccc([N+](=O)[O-])cc2)n1
  -1	4	-14	2	2743	13	2.7
79. Cc1cc(C)c2c(c1)-c1cc(C)nn1C(c1cccnc1)N2 (configuration not stated)
  -3	-11	8	-1	5823	-2	11
80. CC(/C=N/NC(=O)c1ccccc1F)c1ccccc1 (configuration not stated)
  x	-5	-11	x	3974	x	x
81. Cc1ccc(C=NNC(=O)c2ccc(Cn3cc([N+](=O)[O-])cn3)o2)cc1
  0	x	x	10	x	4	2.5
82. CSc1ccc(C(=O)C2CCCN(C(=O)c3cc4cc(F)ccc4[nH]3)C2)cc1 (configuration not stated)
  -35	-18	-10	0	3494	6	2.3
83. C=CCOc1cccc(C(=O)N2CCCC(CNS(=O)(=O)c3cccs3)C2)c1 (configuration not stated)
  14	-4	1	3	3140	1	8.6
84. O=C1C(Cl)=C(N2CCN(c3ccccc3[N+](=O)[O-])CC2)C(=O)c2ccccc21
  35	-9	-3	9	6774	-3	49
85. Cc1cc(C)nc(SCc2ccc(C(=O)N/N=C/c3cccc(O)c3O)cc2)n1
  x	-14	-1	x	2133	x	x
